Choline anaer gr – inhibitors of anaerobic choline-dependent gram-negative bacterial growth; Gram-negative bacterium anaerobic choline minimal medium, absorbance growth; stronger effect = lower value; many inactives read as strong as hits in the columns shown; AID 1963822; calls only; 55,000 compounds, 0.2% hits;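 active = growth z-score on choline under -2 at 7 or 20 h with little or no fall on glycerol, limits in tiers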;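 note: stock transfer was 300 nL into about 50 µL; the organism is E. coli; final concentration not given here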
Choline anaer gr early – further read-out of Choline anaer gr, marked with its call; z-score; measured here: choline growth z-score, timepoint 1;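 score of optical density at 7 h as mean of two plates; lower means less growth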
Numbers without * were called inactive; i = inactive. Only part of the results is shown; count on the stated rates, not on these rows.

SMILES | Choline anaer gr | Choline anaer gr early
O=C(NCc1ccc2c(c1)OCO2)c1ccc2ccnc(N3CCN(c4ccc(F)cc4)CC3)c2c1 | i | 1
Cc1nn(-c2ccccc2)c2sc(C(=O)Oc3ccccc3F)cc12 | i | 0.3
O=C1c2ccncc2C(=O)N1c1ccc(F)cc1Cl | i | -0.52
CC1CCN(S(=O)(=O)c2ccc3c(c2)oc(=O)n3C)CC1 | i | -0.57
Cc1cccc(NC(=O)COc2cccc3ccc(N4CCCCC4)nc23)c1 | i | 0.94
Cc1ccc2c(c1)N(C(=O)CSc1nc3c(-c4ccccc4)csc3c(=O)n1C)CCO2 | i | -0.09
O=C1COc2ccc(S(=O)(=O)N3CCc4ccccc43)cc2N1Cc1noc(C2CCC2)n1 | i | 0.28
Cc1c(CCNC(=O)Cc2ccc(F)cc2)sc2nc(-c3ccc(F)cc3)nn12 | i | -0.69
CS(=O)(=O)Nc1ccc(C2=NN(C(=O)CCC(=O)O)C(c3ccccc3F)C2)cc1 (stereo unspecified) | i | 1.3
COc1cc(CNCCSc2nnnn2C)cc(Cl)c1OCc1ccc(Cl)cc1 | i | -0.28
Cc1ccccc1NC(=O)N1CCN(C)c2ncccc21 | i | 1.1
COC(=O)c1ccccc1NC(=O)CSc1ncnc2nc[nH]c12 | i | -2.9

Retrieved one by one from the entries so far:
SMILES | Choline anaer gr | Choline anaer gr early
COc1cc(CNCCSc2nnnn2C)cc(Cl)c1OCc1ccc(Cl)cc1 | i | -0.28
O=C1COc2ccc(S(=O)(=O)N3CCc4ccccc43)cc2N1Cc1noc(C2CCC2)n1 | i | 0.28
O=C(NCc1ccc2c(c1)OCO2)c1ccc2ccnc(N3CCN(c4ccc(F)cc4)CC3)c2c1 | i | 1
Cc1cccc(NC(=O)COc2cccc3ccc(N4CCCCC4)nc23)c1 | i | 0.94
Cc1ccc2c(c1)N(C(=O)CSc1nc3c(-c4ccccc4)csc3c(=O)n1C)CCO2 | i | -0.09

(cont.)
SMILES | Choline anaer gr | Choline anaer gr early
COc1ccc(-n2cc(C(=O)Oc3ccc4cnccc4c3)c3ccccc3c2=O)cc1 | i | 1.3
Cc1ccc(CNc2nc(C)nc3onc(C)c23)cc1 | i | 0.12
CCCCNC(=O)C1CC(=O)N(CCc2c[nH]c3ccc(Cl)cc23)C1 (stereo unspecified) | i | -0.45
Cn1c(C(O)c2ccccc2)nc2ccccc21 (stereo unspecified) | i | -0.56
CCCN1CCN(CCCNC(=O)c2cc3c(s2)-c2c(C)nn(-c4ccccc4)c2CC3)CC1 | i | -1.2
CCN1CCN(C(=O)c2cc(=O)n(CC)c3c2c(=O)n(CC)c(=O)n3C)CC1 | i | 0.06
COc1ccc(CNC2=NCCNC23CCCC(C)C3)cc1 (stereo unspecified) | i | 0.51
CC(C)c1nnc(NC(=O)c2cc(=O)c3ccc(Br)cc3o2)s1 | i | -0.36
CC(C)(C)c1csc(-c2csc(S(=O)(=O)NCc3ccc(Cl)cc3)c2)n1 | i | 0.67
CNC(=O)Nc1ccc(C2(C(=O)NC3CCCC3)CCC2)cc1 | i | -1.2
O=S(=O)(c1ccc(Cl)cc1)c1ccc(NCc2ccc3c(c2)OCO3)nn1 | i | 0.45
CCn1c(=O)n(CC(=O)O)c2ccccc21 | i | -0.55

By substructure, those above with a Cl atom.
SMILES | Choline anaer gr | Choline anaer gr early
O=C1c2ccncc2C(=O)N1c1ccc(F)cc1Cl | i | -0.52
COc1cc(CNCCSc2nnnn2C)cc(Cl)c1OCc1ccc(Cl)cc1 | i | -0.28
CCCCNC(=O)C1CC(=O)N(CCc2c[nH]c3ccc(Cl)cc23)C1 (stereo unspecified) | i | -0.45
CC(C)(C)c1csc(-c2csc(S(=O)(=O)NCc3ccc(Cl)cc3)c2)n1 | i | 0.67
O=S(=O)(c1ccc(Cl)cc1)c1ccc(NCc2ccc3c(c2)OCO3)nn1 | i | 0.45

Next section.
SMILES | Choline anaer gr | Choline anaer gr early
CC(C)(C)NC1=NCCNC12CCN(S(=O)(=O)c1ccc3c(c1)CCCC3)CC2 | i | 0.28
COC(=O)CC1=CC(SCC(=O)Nc2ccccc2C)=Nc2ccccc2N1 | i | 0.02
COc1ccc(OC)c(NC(=O)Nc2ccc(Nc3cc(N(C)C)nc(C)n3)cc2)c1 | i | 1.4
O=C(NC1CCN(Cc2ccccc2)CC1)C1CCN(c2cc(-c3cccc(F)c3)ncn2)CC1 | i | -0.42
Cc1cccc(N2CCN(C(=O)C3CCN(S(=O)(=O)c4cccc5nsnc45)CC3)CC2)c1C | i | 0.95
Cc1ccc2[nH]cc(CCNC(=O)CCC(=O)N3CCSc4c3c(C)nn4-c3ccccc3)c2c1 | i | 0.54
Cn1c(=O)c(N2CCC(NC(=O)Nc3ccc(Br)cc3)CC2)nc2ccccc21 | i | -0.07
CCN(CC)c1ncc2c(n1)CCC(C(=O)NC(C)c1cccs1)C2 (stereo unspecified) | i | 0.13
CCOC(=O)Cn1c(=O)c2c(nc3n2CCCCN3c2ccc(OCC)cc2)n(C)c1=O | i | 0.46
CCc1ccc(NC(=O)Nc2cc(C)c3nc(NC(C)=O)sc3c2)cc1 | i | -0.07
Cc1ccc(-n2nnc(C(=O)NC(C)C)c2-c2cccnc2)cc1 | i | 0.32
Cc1cc(-c2c(C)sc(C)c2S(=O)(=O)N2CCCc3ccccc32)n[nH]1 | i | 0.54
O=S(=O)(c1ccc(F)cc1)c1nc(-c2ccc(Cl)cc2)oc1N1CCCC1 | i | 0.64
CCCSCCCNC(=O)c1ccc(Cn2c(=O)c(=O)[nH]c3cccnc32)cc1 | i | 0.41
O=C(c1ccc(N2CCNCC2)c(NS(=O)(=O)c2ccc(Br)cc2)c1)N1CCOCC1 | i | 0.42
Cc1cccc(C(=O)N2CCc3c(c(C(=O)NCc4ccccc4)nn3C)C2)c1 | i | 0.17
Cc1cc(NS(=O)(=O)c2c(C)sc(C)c2-c2n[nH]c(C)c2C)ccc1Br | i | 0.73
Cc1ccc(N2CC(C(=O)N3CCN(c4ccc(-c5noc(C6CCC6)n5)cc4)CC3)CC2=O)cc1C (stereo unspecified) | i | 0.53
O=c1[nH]c(C2CCN(S(=O)(=O)c3ccc(Cl)cc3)CC2)nc2c1nnn2Cc1ccccc1F | i | -0.59
CCC(C)NC(=O)c1cc2c(s1)CN(C(C)C)C2 (stereo unspecified) | i | 1.1
CC(C)Sc1nccn2nc(-c3cccs3)cc12 | i | -1.1
CCC(C(=O)Nc1cccc(OC)c1)n1nc(C)n2c(cc3cc(C)ccc32)c1=O (stereo unspecified) | i | -0.45
CC(SC1=Nc2ccccc2C2=NC(C(C)C)C(=O)N12)C(=O)Nc1ccccc1Cl (stereo unspecified) | i | 0.27
CS(=O)(=O)Nc1cnc(N2CCC(C(N)=O)(N3CCCCC3)CC2)c(C(=O)O)c1 | i | -0.25
Cc1cccc(C(=O)Nc2ccccc2Sc2cc(C)nc3ncnn23)c1 | i | 0.97
CCc1nnc(-c2cn(CC(=O)Nc3ccc(OC)cc3)c3ccccc23)o1 | i | -0.03
Cc1cccc(C)c1N1C(=O)N2CCCN2C1c1ccc(F)cc1 (stereo unspecified) | i | 0.98
CCCCSc1nc2c3cc(OC)ccc3n(C)c2c(=O)n1CC | i | 0.87
Cc1ccc(-c2cc3nc(C)cc(N4CCC(C(=O)Nc5cccc(Cl)c5)CC4)n3n2)cc1 | i | 0.01
O=C(Nc1ccc(F)cc1)c1nnc(C(=O)N2CCCC(C(=O)NCCCc3ccccc3)C2)s1 (stereo unspecified) | i | 1.7
COc1ccc(Cl)cc1S(=O)(=O)Nc1ccccc1-c1ccc2ccccc2n1 | i | 0.58
Cc1ccc(N2CCN(c3ccc(S(=O)(=O)C(C)(C)C)nn3)CC2)c(C)c1 | i | 0.45
COCc1nnc2n1N=C(c1ccccc1)CS2 | i | -0.54
CC1(C(=O)NCc2ccccc2)CCCN(C(=O)CSc2ccccc2)C1 (stereo unspecified) | i | -0.68
CC1CCN(C(=O)c2csc(Nc3ccc(F)c(F)c3)n2)CC1 | i | -1.5
Cc1ccc2c(c1)Oc1ccc(S(=O)(=O)N3CCCC3)cc1C(=O)N2 | i | 0.92
Cc1cccc(OCc2nc(C)c(C(=O)NC3CCCCC3)s2)c1 | i | -0.2
Cc1[nH]c2c(C)cccc2c1C(O)CN1CCN(c2ccccc2F)CC1 (stereo unspecified) | i | -0.22
COc1cc(OC)c(NC(=O)Nc2cc(C)on2)cc1Cl | i | 0.52
CC(=O)OC1CCN(C(C)=O)CC1 | i | 0.71
Cc1ccccc1CN1C(=O)c2ccccc2C1C(=O)NCCCOC(C)C (stereo unspecified) | i | 1
Cc1csc(-c2csc(S(=O)(=O)N3CC=C(c4ccccc4)CC3)c2)n1 | i | 0.22
O=C(CCc1nc2sc3c(c2c(=O)[nH]1)CCCCC3)N1CCN(c2ccccn2)CC1 | i | -0.02
Fc1ccccc1-c1ccc(SCc2nc(-c3ccc(Br)cc3)no2)nn1 | i | -0.2
CC(=O)Nc1c(C(=O)Nc2ccc(C)c(Cl)c2)nnn1-c1ccc(C)cc1 | i | -1.2
Cc1ccc(-c2c(N3CCN(C)CC3)c(=O)c2=O)cc1 | i | -0.05
O=C1COc2cc(S(=O)(=O)N3CCCC3C(=O)N3CCc4ccccc4C3)c(Cl)cc2N1 (stereo unspecified) | i | -1.7
O=C(NC1CCCC1)c1ccc(-c2cc(N3CCCCC3)ncn2)cc1 | i | 0.29
O=C(CCn1cnc2ccccc2c1=O)Nc1ccc2c(c1)OCO2 | i | 3.9
Cc1cccc(C)c1NC1=NC2CS(=O)(=O)CC2S1 (stereo unspecified) | i | -0.6
CCN1CCN(c2nc3ncn(CC(=O)Nc4ccc(Br)cc4F)c(=O)c3s2)CC1 | i | -0.11
O=C(c1ccccc1)c1cccn1CC(=O)N1CCC(Cc2ccccc2)CC1 | i | 0.67
CC(C)n1nnc2cc(S(=O)(=O)N(C)CC(=O)N3CCN(c4ccccc4)CC3)ccc21 | i | 0.46
CCCN(C(=O)COc1cc(=O)n(C)c2ccccc12)c1ccc(OCC)cc1 | i | -0.78
O=C(CN1C(=O)C2CCCCN2c2ccc(C(=O)N3CCCCC3)cc21)Nc1ccc2c(c1)OCCO2 (stereo unspecified) | i | 0.35
CCCCC1CCC(C(=O)NCCc2csc(-c3ccccc3)n2)CC1 (stereo unspecified) | i | -0.24
Cc1c2c(=O)n(-c3nc4ccccc4s3)nc-2cc(O)n1CCN1CCOCC1 | i | 0.74
CCc1nc(-c2cc(S(=O)(=O)N3CCC(C(=O)Nc4cccc(OC)c4)CC3)c(C)s2)no1 | i | -0.75
COc1ccc(N2C(=O)c3cc(C)nn3CC2(C)C(=O)NCc2ccccc2)c(OC)c1 (stereo unspecified) | i | 1.3
CS(=O)(=O)Nc1cc(C(=O)O)ccc1N1CCC(N2CCCCC2)CC1 | i | 0.83

Additional structures follow.
SMILES | Choline anaer gr | Choline anaer gr early
CCc1cccc(NC(=O)c2sc(-c3cccn3CC)nc2C)c1 | i | 0.97
Cc1ccc(-c2cc(N3CCC(C(N)=O)CC3)nc(SCC(C)C)n2)cc1 | i | 1.8
Cc1ccc(Cn2nc3c(S(=O)(=O)N4CCCCC4)cccn3c2=O)cc1 | i | 0.96
Cc1ccc(Nc2cc(C)nc(N3CCN(C(=O)Nc4ccc(Cl)cc4)CC3)n2)cc1 | i | 1.6
CS(=O)(=O)Nc1nc2ccc(NC(=O)c3cccnc3)cc2s1 | i | -0.13
Cc1cc2c(cc1S(=O)(=O)NCc1ccc(Br)cc1)OCC(=O)N2 | i | -1.3
O=C(Nc1ccc2[nH]c(=O)oc2c1)c1cccc(F)c1 | i | -0.88
CC(=O)Nc1ccc(S(=O)(=O)NCc2cn3c(C)csc3n2)cc1 | i | 0.37
O=C1C2=C(Nc3ccccc3SC2c2ccccc2Br)c2ccccc21 (stereo unspecified) | i | 1.8
Cc1nc(CN2C(=O)COc3ccc(S(=O)(=O)N(C)C4CCCCC4)cc32)no1 | i | 0.34
Cc1nc2ncnn2c(C)c1CCC(=O)N1CCN(c2ccccn2)CC1 | i | 0.03
Cc1ccc(NC(=O)NCc2cc(=O)n3nc(-c4ccccc4)sc3n2)cc1 | i | -0.16
CCOC(=O)c1nc(Nc2ccc(OC)c(Cl)c2)c2c(C)c(C)n(-c3ccccc3)c2n1 | i | 0.31
O=C(NCCCN1CCCC1=O)c1sc2c(cnc3c(F)cccc32)c1-c1ccccc1 | i | -0.09
CCCCn1c(=O)[nH]c2c(C(=O)N3CCC(C)CC3)snc2c1=O | i | 0.23
COc1ccc(Cn2c(C)c(C3=CCN(S(=O)(=O)c4cccc5cccnc45)CC3)c3ccccc32)cc1 | i | -0.07
COc1ccc(Cl)cc1NC(=O)Nc1ccc(-c2nnc(-c3ccccc3)o2)cc1 | i | -0.55
CC(C)c1nnc(-c2ccc3c(c2)OCO3)o1 | i | -1.9
Cc1ccc(-c2nnc(-c3nc(N4CCN(c5ccccn5)CC4)c4ccccc4n3)o2)cc1 | i | -0.86
COc1ccccc1N1CCN(c2ncc(S(=O)(=O)c3ccc(C)cc3)c(N)n2)CC1 | i | 1.2
CCOC(=O)c1cn[nH]c1S(=O)(=O)N1CCN(C2CCCCC2)CC1 | i | -1.2
COc1ccc(Cn2c(SCc3ccc(C(=O)NCCN4CCCC4)cc3)nc3cccnc32)cc1 | i | 1.2
NS(=O)(=O)c1cc(C2(O)NC(=O)c3ccccc32)ccc1Cl (stereo unspecified) | i | 0.04
O=C(c1c(-c2ccc(F)cc2)nc2n1CCS2(=O)=O)N1CCCC1 | i | -0.73
Cc1cc(=O)n2c(n1)NC(N1CCc3ccccc31)=NC2c1ccc(F)cc1 (stereo unspecified) | i | -2.2
Cc1nnc(-c2ccc(Cl)cc2)nc1N1CCC2(CC1)OCCO2 | i | 0.57

From PubChem BioAssay
